Source: PubChem
VDR inhibitor = blocks the human vitamin D receptor; AID 504847; Potency, µM, for the others: max response, negative = inhibition, actives largely listed as inhibitors; actives 0.93% (n = 400,000); P11473; VDR-SRC2-3 peptide fluorescence polarization, 2 h; active = well fitted inhibition curve with a large enough effect; inconclusive = small, poorly fitted or top-dose-only effect, or another doubt; inactive = no such curve, though single readings can be large or run the other way; also: series mostly up to about 120 µM
Target sequence (P11473 whole entry, looked up): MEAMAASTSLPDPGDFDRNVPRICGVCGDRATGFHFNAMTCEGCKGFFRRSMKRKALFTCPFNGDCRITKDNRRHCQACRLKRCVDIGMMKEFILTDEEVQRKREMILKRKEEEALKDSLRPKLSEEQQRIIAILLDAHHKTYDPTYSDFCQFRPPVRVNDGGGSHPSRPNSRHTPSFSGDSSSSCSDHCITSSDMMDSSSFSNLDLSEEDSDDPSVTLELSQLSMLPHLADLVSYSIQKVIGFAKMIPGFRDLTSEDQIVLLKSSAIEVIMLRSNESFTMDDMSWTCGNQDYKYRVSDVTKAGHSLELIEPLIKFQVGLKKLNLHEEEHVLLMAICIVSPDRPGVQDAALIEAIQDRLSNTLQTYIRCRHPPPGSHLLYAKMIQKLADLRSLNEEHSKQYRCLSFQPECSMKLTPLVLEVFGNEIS
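Two reagent solutions held at 4 deg C in the dark were dispensed, compounds pinned at 23 nl, and the mixture incubated 2 h at room temperature. Read-out: fluorescence polarization of VDR–SRC2-3 peptide binding.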
The depositor's hits bear a star; ? = inconclusive; & = joins results of further samples. % is scaled to controls: 0 for no effect and ±100 for the full control effect; potency is read from the fitted curve at half-maximal effect. This is a subset; rates above refer to the full screens.

canonical_smiles | VDR inhibitor
CCOc1ccc(NC(=O)CC2C(=O)N(c3ccc(F)cc3)C(=O)N2Cc2ccc(OC)c(OC)c2)cc1 (stereo not drawn) | -17%
COc1ccc(C(=O)Oc2ccc3c(C)cc(=O)oc3c2C(C)=O)cc1 | -11%
N#CCC(=O)Nc1ccc(C(=O)NCc2ccccn2)cc1 | 3%
O=C1CN(c2nc(-c3ccccc3)c3ccccc3n2)c2ccccc2N1 | -8%
COCCN(C(=O)C1CC1)c1nnc(-c2cccc(C)c2)s1 | -1%
COc1cccc(NCc2nnc3n2CCCCC3)c1 | 4%
O=C(C1CCCN(S(=O)(=O)c2cccc3nsnc23)C1)N1CCN(c2ccccc2F)CC1 (stereo not drawn) | -5%
Cc1cccc(C)c1OCC(O)CN1CCN(c2ccccn2)CC1 (stereo not drawn) | -10%
COc1ccc(C2CC(c3ccccc3)=NN2C(=O)CSc2ncn[nH]2)cc1 (stereo not drawn) | 0%
Oc1ccc(/C=N/n2c(-c3ccccc3)n[nH]c2=S)cc1Br | -6%

The results go on:
canonical_smiles | VDR inhibitor
CC(=O)n1nc2nc(C)cc(C)c2c1N | 8%
COc1ccccc1NC(=O)C(=O)NCCCN1CCCC1=O | 4%
CCOc1ccc(NC(=O)C(=O)NCCN2CCN(C(=O)c3ccc(C)cc3)CC2)cc1 | 6%
CCCCCCCCCOC(=O)C1N2C(=O)[C@@H](NC(=O)COc3ccccc3)[C@H]2SC1(C)C (stereo partly drawn) | -18%
CCOC(=O)Cc1csc(SCC(=O)Nc2cccc(C#N)c2)n1 | 1%
COc1ccc(CCNC(=O)c2coc3ccccc3c2=O)cc1OC | 10%
CC(=Nc1ccccc1)C1=C(O)CC(C)(C)CC1=O | 16%
COC(=O)c1cc(-c2ccccc2)sc1N | ?
O=C(COc1ccccc1[N+](=O)[O-])Nc1cccc(-c2nc3ccccc3s2)c1 | 10%
CC(C)Oc1ccc(-c2cc(=O)[nH]c(=O)[nH]2)cc1 | 25%

7 compounds already listed, arranged by their value in VDR inhibitor, smallest number first.
canonical_smiles | VDR inhibitor
CCOc1ccc(NC(=O)CC2C(=O)N(c3ccc(F)cc3)C(=O)N2Cc2ccc(OC)c(OC)c2)cc1 (stereo not drawn) | -17%
COc1ccc(C(=O)Oc2ccc3c(C)cc(=O)oc3c2C(C)=O)cc1 | -11%
O=C1CN(c2nc(-c3ccccc3)c3ccccc3n2)c2ccccc2N1 | -8%
Oc1ccc(/C=N/n2c(-c3ccccc3)n[nH]c2=S)cc1Br | -6%
O=C(C1CCCN(S(=O)(=O)c2cccc3nsnc23)C1)N1CCN(c2ccccc2F)CC1 (stereo not drawn) | -5%
N#CCC(=O)Nc1ccc(C(=O)NCc2ccccn2)cc1 | 3%
CCOc1ccc(NC(=O)C(=O)NCCN2CCN(C(=O)c3ccc(C)cc3)CC2)cc1 | 6%

The listing continues:
canonical_smiles | VDR inhibitor
O=C(CCc1ccccc1)NNC(=O)C1CCCCC1 | -10%
O=S(=O)(NCc1csc(-c2cccs2)n1)c1ccccc1 | -6%
Cc1ccc(Oc2ncccc2/C=N/OCc2ccc(Cl)cc2Cl)cc1 | 3%
CCNC(=S)Nc1nc2c(cc1C(=O)OCC)CCCC2 | 18%
COc1ccc(C(=O)Nc2cnn(Cc3ccc(Cl)cc3)c2)cc1OC | -4%
O=C(CCc1nc2ccccc2c(=O)[nH]1)NNC(=O)COc1ccc(Br)cc1 | -15%
C=CCn1c(COC)nnc1SCC(=O)c1ccc(F)cc1 | ?
Cc1ccc(C(c2nnnn2CCc2ccccc2)N2CCSCC2)cc1 (stereo not drawn) | -14%
COc1ccc(Br)cc1/C=N/N1CCN(Cc2ccccc2Cl)CC1 | ?
Cc1nn(-c2nnc(NC3CCCCC3)nn2)c(C)c1Br | 2%

Later entries.
canonical_smiles | VDR inhibitor
CCOC(=O)Cc1cnc(NC(=O)CSc2nc3ncnc(N)c3[nH]2)s1 | -15%
COc1ccccc1CNC(=O)c1nnc(Cc2ccc(Cl)cc2)o1 | -12%
O=C(O)c1ccccc1/C=N/Nc1ccc(S(=O)(=O)N2CCOCC2)cc1[N+](=O)[O-] | 8%
COc1ccc(-c2ccc3c(c2)[C@@H]2C[C@H](N(C)C(=O)Nc4ccccc4)[C@H]([C@H](C)O)C(=O)N2CC3)cc1 | -1%
COc1ccc(NC(=O)CCNS(=O)(=O)c2cccc3nsnc23)cc1 | -12%&7%
CCOC(=O)C1CCN(C(=O)CSc2n[nH]c(=O)[nH]c2=O)CC1 | 7%
N#Cc1ccccc1-c1ccc2ncnc(NCc3cccs3)c2c1 | 9%
CCCCCCCCNCCS(=O)(=O)NCc1ccc(OC)cc1 | -18%
O=C1NN(c2ccccc2)C(=O)/C1=C/c1ccc(-c2cccc(C(=O)O)c2)o1 | 89µM*
CN(Cc1ccccc1)c1ccc(C(=O)O)cc1[N+](=O)[O-] | 0%

New compounds follow:
canonical_smiles | VDR inhibitor
COc1cc(CNc2ccc(N3CCOCC3)c(C(=O)O)c2)ccc1OCC(N)=O | 4%
CCC1CCCCN1S(=O)(=O)c1ccc(C(=O)Nc2nnc(C3=COCCO3)o2)cc1 (stereo not drawn) | -20%
CC1CC(=O)N(c2ccc(NCc3ccc(Cl)cc3)c([N+](=O)[O-])c2)C1=O (stereo not drawn) | 6%
CCCOc1ccc(C(=O)N/N=C/c2ccc(-c3ccc(S(=O)(=O)Nc4ncccn4)cc3)o2)cc1 | 11%
NC(=O)c1ccsc1NC(=O)CSc1nnc(C2CC2)n1Cc1ccccc1 | 10%
O=C([C@@H]1Cc2ccccc2CN1)N1CCN(Cc2ccccc2)CC1 | 3%
CCOc1cc(C2c3c(oc4cc(C)cc(C)c4c3=O)C(=O)N2CCO)ccc1O (stereo not drawn) | 4%
Nc1c(C(=O)NCCc2ccccc2)nnn1Cc1ccc(Br)cc1F | 2%
Nc1nonc1-n1nnc(C(=O)N/N=C/C2CCCCC2)c1-c1ccccc1 | -6%
COc1cccc(OC)c1C(=O)NC(C)CCc1ccccc1 (stereo not drawn) | -7%

(list continues)
canonical_smiles | VDR inhibitor
O=C(Cn1cc2c(n1)CCCC2)NCc1cccs1 | -7%
Cc1ccc(C)c(Oc2ccc(S(=O)(=O)N3CCN(C)CC3)cn2)c1 | -13%
CC(C)c1ccc(NC(=O)C2CC(=O)N(C(C)C)C2)cc1 (stereo not drawn) | 2%
COCCCNC(=O)CSc1nc2cc3c(cc2c(=O)n1CCCC(=O)NCc1ccc(OC)cc1)OCO3 | -21%&6%
O=C(O)COCC(=O)Nc1cc(C(F)(F)F)cc(C(F)(F)F)c1 | 0%
CN(CC(=O)Nc1ccc(N2CCOCC2)cc1)CC(=O)Nc1ccc(Cl)cc1[N+](=O)[O-] | -17%
CCN1C2OC3OC4C(OC3OC2N(CC)S1(=O)=O)N(CC)S(=O)(=O)N4CC (stereo not drawn) | -7%
COc1ccc(CNC(=O)C(c2ccco2)N(C(=O)c2snc(C(N)=O)c2N)c2cccc(OC)c2)cc1 (stereo not drawn) | 2%
O=C(COc1ccc2c(-c3ccccc3)cc(=O)oc2c1)Nc1cccnc1 | 5%
COc1cc(N=c2ssnc2Cl)cc(OC)c1 | 20µM*

(list continues)
canonical_smiles | VDR inhibitor
C=CCC(O)c1ccccc1 (stereo not drawn) | 9%
CCOc1ccc(NC(=O)C(NS(=O)(=O)c2ccc3c(c2)CCN3C(C)=O)C(C)C)cc1 (stereo not drawn) | 9%
On1onc2c3cc(-c4ccccc4)nc3ccc21 | 1%
O=c1c2cnn(-c3ccc(F)cc3)c2ncn1Cc1cccnc1 | -3%
O=C(NCCCl)Nc1ncn[nH]1 | -12%
CCCC(=O)Nc1ccc(OCC(=O)OC)cc1 | 1%
O=C(COc1ccc(Cl)cc1)NCC(c1cccs1)S(=O)(=O)c1ccc(F)cc1 (stereo not drawn) | 8%
O=S1(=O)CC2NC(=S)N(c3cccc(Br)c3)C2C1 (stereo not drawn) | -10%
O=C(NC(c1ccccc1)c1ccccc1)c1cccc(S(=O)(=O)NCc2ccccc2)c1 | 11%
O=c1[nH]c2ccc(Cl)cc2c(-c2ccccc2)c1[N+](=O)[O-] | -9%

Records listed so far marked active in VDR inhibitor:
canonical_smiles | VDR inhibitor
O=C1NN(c2ccccc2)C(=O)/C1=C/c1ccc(-c2cccc(C(=O)O)c2)o1 | 89µM*
COc1cc(N=c2ssnc2Cl)cc(OC)c1 | 20µM*

Further structures.
canonical_smiles | VDR inhibitor
CC[C@@H]1Cn2c(c3nc(-c4cc(Cl)cc(Cl)c4Cl)nc-3n(C)c2=O)N1 | 0%
O=C(c1ccco1)N1CCN(C(=O)C2CC(c3ccccc3F)=NO2)CC1 (stereo not drawn) | 0%
S=C(NCCc1ccccn1)Nc1cc(Cl)cc(Cl)c1 | -13%
CC1(C)CC(=O)C2=C(C1)Nc1ccccc1NC2c1ccc(F)cc1 (stereo not drawn) | 11%
CCC(=O)N1C(Cc2ccccc2)COC1(C)C (stereo not drawn) | -5%
CCc1ccc(/C(C)=N/NC(=O)C(O)c2ccccc2)s1 (stereo not drawn) | 0%
Cc1ccc(CNC(=O)c2ccc3c(c2)c(C)c(C)n3Cc2ccc(Cl)cc2)o1 | -1%
O=C(Cc1ccccc1)NC(NCCCN1CCOCC1)(C(F)(F)F)C(F)(F)F | 6%
COc1cccc(Nc2nc(-c3ccccc3)nc3ccccc23)c1 | -2%
COc1c(Br)cc(Br)cc1C(=O)Nc1ccccc1N1CCCC1 | 0%

Remaining list, next part:
canonical_smiles | VDR inhibitor
O=C(NC1CCc2ccccc21)C1CCN(S(=O)(=O)c2ccc(-n3cnnn3)cc2)CC1 (stereo not drawn) | -7%
COC(=O)c1c(NC(=O)CSc2ccccc2N)sc(C)c1C | 4%
Cc1ccc(OCC(=O)Nc2ccc(S(=O)(=O)Nc3cc(C)on3)cc2)c(Br)c1 | -4%
COc1ccc(S(=O)(=O)NCCC(=O)NC(C)c2ccccc2)cc1 (stereo not drawn) | -3%
O=C(Cc1ccc(-c2ccccc2)cc1)NCc1ccccc1 | 1%
Cc1ccc(NS(=O)(=O)c2cccc(C(=O)O)c2)cc1S(=O)(=O)N1CCOCC1 | 2%
O=C(NC1(C(F)(F)F)NC(=O)N(c2ccc(F)c(Cl)c2)C1=O)c1ccncc1 (stereo not drawn) | 13%
CC1CCN(C(=O)CSc2n[nH]c(-c3cccs3)n2)CC1 | 0%
COC(=O)Cc1ccc(OCc2ccc(Cl)nc2)cc1 | -20%
O=C(CNC(=O)c1ccc2c(c1)OCO2)NCc1cccs1 | 21%

Next section
canonical_smiles | VDR inhibitor
O=C(CN1C(=O)S/C(=C\c2ccc(C(=O)O)cc2)C1=O)Nc1ccccc1 | -15%
CC(O)(CC(=O)CC(=O)c1ccccc1)c1ccccc1 (stereo not drawn) | 3%
CC(=O)Oc1cc2c(C(=O)NCc3ccncc3)c(C)oc2c2ccccc12 | -11%
CCN(CC)S(=O)(=O)c1cccc(C(=O)OC2CCOC2=O)c1 (stereo not drawn) | 3%
O=C(Nc1ccc(F)cc1)Nc1ccc2ccccc2n1 | -7%
O=C(COc1ccccc1)Nc1cccc(-c2ccc(N3CCOCC3)nn2)c1 | 10%
Cn1c(C(=O)N2CCN(Cc3ccc4c(c3)OCO4)CC2)cc2sccc21 | 6%
COc1ccc2nc(-c3ccccc3)cc(C(=O)OCC(=O)NC3CC3)c2c1 | -8%
CC(OC(=O)c1ccc(NC(=O)CC#N)cc1)C(=O)NCCC1=CCCCC1 (stereo not drawn) | 8%
Cc1ccc(NC(=O)c2ccc(Cl)cc2Cl)cc1O | 3%

Following part.
canonical_smiles | VDR inhibitor
Cc1ccc(CNC(=O)C2CCC(=O)N2C2CCCCC2)cc1 (stereo not drawn) | 7%
COc1ccc(-c2nnc(SCC(=O)Nc3ccccc3)n2C)cc1 | 14%
COc1ccccc1C(=O)N=c1sc2c(C)ccc(OC)c2n1C | 1%
COc1ccc(COCC(CC(C)C)N2CCN(C(=O)c3cccc(C(F)(F)F)c3)CCC2=O)cc1 (stereo not drawn) | 8%
CCc1ccc(C(C(=O)NC2CCCC2)N(CCOC)C(=O)CCC(=O)Nc2cc(C)on2)cc1 (stereo not drawn) | 8%
O=C(c1ccccc1)N1CCN(c2ncnc3sc4c(c23)CCC4)CC1 | 10%
COc1cc(-c2ccno2)ccc1S(=O)(=O)N1CCN(c2cc(C)ccc2C)CC1 | 6%
CC1(N2CCOCC2)CC2(O)C(=[N+]1[O-])CCc1c2no[n+]1[O-] (stereo not drawn) | -4%
COc1ccc(NS(=O)(=O)c2cc(Cl)ccc2Cl)cc1S(=O)(=O)N1CCCCC1 | -5%
CCCCn1c(N)c(N(CCOC)C(=O)CN(C)CC(=O)Nc2ccc(Cl)c(Cl)c2)c(=O)[nH]c1=O | -11%

Continuation.
canonical_smiles | VDR inhibitor
CCOCC(=O)Nc1cc(C(F)(F)F)ccc1Oc1cccc(Br)c1 | -16%
COc1ccc2nc(NS(=O)(=O)c3ccc(NC(C)=O)cc3)sc2c1 | 0%
Cc1ccc(C)c(OCCC(=O)NNC(=O)c2cc(C)oc2C)c1 | -3%
COc1ccc(NC(=O)CC2S/C(=N\c3nccs3)N(C)C2=O)cc1 (stereo not drawn) | -11%
CCCC(=O)NC(c1ccc(OC)c(OC)c1)c1c(O)ccc2ccccc12 (stereo not drawn) | -8%
Cc1ccc(C(=O)O/N=C2\CCS(=O)(=O)c3sccc32)cc1 | 0%
O=C(Cc1cccc2ccccc12)NNC(=O)c1ccc(Br)o1 | 14%
CCOC(=O)C1CCN(S(=O)(=O)c2cc3c4c(c2)CC(=O)N4CCC3)CC1 | 20%
COc1cccc(CN2CCN(C(=O)Nc3ccc([N+](=O)[O-])cc3)CC2)c1 | -4%
CCOC(=O)c1c(C)oc2nc(C)nc(N3CCN(c4ccccc4F)CC3)c12 | -1%
CC(C)n1c(N2CCN(S(=O)(=O)c3cccc([N+](=O)[O-])c3)CC2)nc2ccccc21 | -5%
